Screens: PubChem BioAssay, National Center for Advancing Translational Sciences (NCATS)
TRPML1 blocker: inhibitors of human TRPML1 channel; actives 0.02% (n = 390,000); Q9GZU1; activity change, negative = inhibition, % (concentration not given with the values); TRPML1-inducible cells, Ca2+ dye fluorescence, FDSS; stronger effect = lower value; inhibition of EC80 agonist-evoked calcium signal; in the data active means activity change below about -50%; inconclusive means about -30% to -50%; inactive means above about -30%;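 further: stimulus is agonist 54-4 at its EC80 concentration; on the % scale 0 is the no-effect control and ±100 the full control effect; compound concentration not given in the record; the text of the record puts the active cut at -80%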
Target sequence (Q9GZU1 whole entry, looked up): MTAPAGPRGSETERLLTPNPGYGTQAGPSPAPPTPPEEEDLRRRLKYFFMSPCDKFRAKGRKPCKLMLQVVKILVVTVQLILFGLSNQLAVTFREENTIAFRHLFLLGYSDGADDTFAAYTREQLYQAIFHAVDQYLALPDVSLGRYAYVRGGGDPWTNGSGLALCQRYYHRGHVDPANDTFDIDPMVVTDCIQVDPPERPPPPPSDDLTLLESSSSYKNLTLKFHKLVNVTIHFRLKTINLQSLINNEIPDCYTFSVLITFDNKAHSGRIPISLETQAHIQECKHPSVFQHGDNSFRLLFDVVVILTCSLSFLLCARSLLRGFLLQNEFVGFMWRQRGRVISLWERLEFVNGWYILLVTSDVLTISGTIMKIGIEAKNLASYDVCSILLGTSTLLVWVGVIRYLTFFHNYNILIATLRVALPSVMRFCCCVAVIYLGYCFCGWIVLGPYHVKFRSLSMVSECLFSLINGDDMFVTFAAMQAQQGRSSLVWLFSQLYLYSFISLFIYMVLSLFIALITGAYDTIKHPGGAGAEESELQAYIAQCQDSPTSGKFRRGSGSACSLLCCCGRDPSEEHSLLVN
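Calcium fluorescence in TRPML1-DL cells induced overnight with Tet: a 110 s read after compound pin addition, then a 110 s antagonist read after challenge with 54-4 at 4 uM final (EC80).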
PINK1 modulator: changes PINK1 expression | Potency, µM (highest dose often 76.6 µM), inactives show top-dose activation (PINK1 increase), usual class: activators | actives 0.2% (n = 410,000) | AID 624263 | PINK1 immunofluorescence, high-content cytometry, 24 h; active = well fitted activation curve with a large enough effect; inconclusive = small, poorly fitted or top-dose-only effect; inactive = flat fitted curve, though single readings scatter; cell line not stated here;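 further: potency means the concentration at half of the fitted maximal effect; % of control where 0% means no effect; nearly all actives have a fitted effect of over 65% in size; a mitochondrial uncoupler was the plate control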
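Fluorescence from anti-PINK1 antibody, together with nuclear and cell stains, was scanned on a laser-scanning cytometer. Before staining, stable-line cells were incubated 24 hours with compounds at 5 concentrations; primary antibody 12 h at 10 degrees C.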
D2 PAM: potentiates the human D2 dopamine receptor allosterically; DiscoveRx D2 beta-arrestin cells, luminescence, 90 min; 100% = 57 uM dopamine signal; potentiation, % (test concentration not listed); actives 0.23% (n = 360,000); P14416; AID 624464; active = potentiation of 50% or more; inconclusive = 30% to 50%; inactive = 30% or less;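 further: compound concentration not given in the record; tested on top of an EC20 dose of dopamine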
Target sequence (P14416 whole entry, looked up): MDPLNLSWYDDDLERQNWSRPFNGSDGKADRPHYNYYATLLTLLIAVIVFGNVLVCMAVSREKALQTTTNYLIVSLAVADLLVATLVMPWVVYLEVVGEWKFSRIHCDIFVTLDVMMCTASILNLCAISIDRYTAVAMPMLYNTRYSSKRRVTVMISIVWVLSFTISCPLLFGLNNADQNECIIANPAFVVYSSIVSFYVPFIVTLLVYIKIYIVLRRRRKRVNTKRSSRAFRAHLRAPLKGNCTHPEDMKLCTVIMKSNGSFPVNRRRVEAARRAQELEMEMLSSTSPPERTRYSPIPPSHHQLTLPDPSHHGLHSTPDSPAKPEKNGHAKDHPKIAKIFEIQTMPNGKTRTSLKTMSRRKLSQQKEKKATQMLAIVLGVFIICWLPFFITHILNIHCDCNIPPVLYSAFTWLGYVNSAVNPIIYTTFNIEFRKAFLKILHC
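PathHunter beta-arrestin assay in DiscoveRx D2 cells. Compounds were added with an EC20 of dopamine (50 nM final) for 90 min at 37 deg C. Luminescence was read 1 h after detection reagent, with 57 uM dopamine as the EC100 control.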
D2 ag: human D2 receptor agonism in beta-arrestin assay | actives 0.084% (n = 360,000) | activation, % (concentration not given with the values) | AID 624465 | DiscoveRx PathHunter D2 beta-arrestin, luminescence, 90 min; 100% = 57 uM dopamine signal; in the data active = activation above about 40%; inconclusive = about 15% to 40%; inactive = below about 15%; further: compound concentration not given in the record; the text of the record calls up to 30% inactive
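DiscoveRx PathHunter D2 beta-arrestin cells (2,100/well) attached overnight, then compound-stimulated 90 min at 37 C in HBSS/10 mM HEPES/0.1% Tween-20 buffer; beta-galactosidase complementation read by luminescence after 1 h at ambient temperature. Dopamine 57 uM final (EC100) as control.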
TRPML1 ag: activates the human TRPML1 channel | TRPML1-expressing cells, Ca2+ dye fluorescence, FDSS; host cell line not named in the record; reference of the full effect not given here | activation, % (test concentration not listed) | actives 0.12% (n = 410,000); in the data active = activation above about 50%; inconclusive = about 30% to 50%; inactive = below about 30%; further: 0% is about no effect; the text of the record puts the active cut at 80%
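Calcium fluorescence on an FDSS kinetic reader gave the read-out. Tet-induced TRPML1-DL cells were plated overnight, dye-loaded (Ca8 with quencher, 45-90 min, room temperature, dark), then read 110 s after compound addition, and again 110 s after 4uM final 54-4 (EC80).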
Six1-Eya2 inh: blocks human Six1 binding to Eya2 | AlphaScreen GST-Six1/His-Eya2 binding, biochemical; stronger effect = lower value; control for the full effect not named in the record | activity change, % (no concentration beside the values) | actives 0.56% (n = 360,000) | AID 651725; in the data active = activity change below about -65%; inconclusive = about -30% to -65%; inactive = above about -30%; further: on the % scale 0 is the no-effect control and ±100 the full control effect; compound concentration not given in the record
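GST-Six1 + His-Eya2 (5X stock: 250/500 nM); Tris pH 8.0, 300 mM NaCl, 0.05% BSA, 0.02% Tween 20; GSH donor/Ni acceptor beads; 1 h 37 °C dark; AlphaScreen readout.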
* = called active by the depositor; ? = inconclusive; . = not tested or not shown; [ ] = remark or other dose.

SMILES | TRPML1 blocker | PINK1 modulator | D2 PAM | D2 ag | TRPML1 ag | Six1-Eya2 inh
CCOP(=O)(c1ccc(N(C)C)cc1)C(O)c1ccc(OC)cc1 (stereo unspecified) | -1 | -0.5% | -12 | -3.9 | -0.4 | -8
COc1ccccc1-c1cc(C(F)(F)F)nc(NCc2ccco2)n1 | 28 | 7.8% | -8 | -3.2 | 1.3 | 4
COc1cc(NC(=S)N2CCN(C(=O)c3ccco3)CC2)c(OC)cc1Cl | 3 | -1.1% | -15 | -1.2 | -0.4 | -15
COc1ccccc1NC(=O)CSc1nc2c(sc3ccccc32)c(=O)n1CCN(C)C | 7 | 3.3% | -39 | -11 | -0.8 | -28
COc1ccc(C(C)=O)cc1Cn1c(C)c(C(=O)NCc2cccc(C(F)(F)F)c2)sc1=O | . | 1.4% | -5 | 9.0 | -0.5 | -5
Cc1ccc(/C(N)=N/OC(=O)c2cccc(Cn3cc(C(F)(F)F)ccc3=O)c2)cc1 | 25 | -1.1% | 24 | ? | -0.4 | -1
O=C(CCC(=O)c1cccs1)c1cccs1 | 5 | -1.1%[38.3 µM] | -9 | 1.6 | 1.7 | 5
Cc1cc(C(=O)OCC(=O)Nc2sc3c(c2C#N)CCC(C)C3)c2ccccc2n1 (stereo unspecified) | -13 | -0.8% | -3 | 2.6 | 0.7 | -3
COc1ccc(S(=O)(=O)N2CCN(Cc3ccc4c(c3)OCO4)CC2)c2ccccc12 | 2 | -0.6% | -5 | -3.3 | 0.3 | 2
CSC1=C(C#N)C(C)CC(=O)N1 (stereo unspecified) | -26 | 3.1% | 6 | -3.4 | -0.4 | 13
O=C(c1ccc(F)cc1)N1CCN(c2ccc([N+](=O)[O-])c(N3CCOCC3)c2)CC1 | -21 | 0.5% | -7 | -2.1 | 1.7 | -8
Cc1cc2c3c(c1)C(C)CC(C)(C)N3C(=O)C2=O (stereo unspecified) | 2 | 6.4% | -24 | -3.7 | 0.0 | 0
COc1cccc(C(C(=O)NCC2CCCO2)N(C(=O)Cn2nnc3ccccc32)c2ccccc2C(C)=O)c1OC (stereo unspecified) | 16 | 2.2% | -6 | -2.7 | 0.7 | -5
CCOc1ccc(CCNC(=O)c2cc3c(-c4ccccc4F)nn(C)c3s2)cc1OCC | -3 | 0.4% | . | . | -0.5 | .
CCC(CO)Oc1cc(NCc2ccccc2)c2ncn(C(C)C)c2c1 (stereo unspecified) | -4 | -0.5% | -16 | 6.4 | 0.4 | -12

Next part; the last two above are carried over.
SMILES | TRPML1 blocker | PINK1 modulator | D2 PAM | D2 ag | TRPML1 ag | Six1-Eya2 inh
CCOc1ccc(CCNC(=O)c2cc3c(-c4ccccc4F)nn(C)c3s2)cc1OCC | -3 | 0.4% | . | . | -0.5 | .
CCC(CO)Oc1cc(NCc2ccccc2)c2ncn(C(C)C)c2c1 (stereo unspecified) | -4 | -0.5% | -16 | 6.4 | 0.4 | -12
COC(=O)/C=C1\SC(=Nc2ccc(OC)cc2)NC1=O | 11 | 1.6% | -4 | -6.3 | 0.3 | 1
O=C(Nc1ccccc1)C(Cc1ccccc1)NC(=O)C12CC3CC(CC(C3)C1)C2 (stereo unspecified) | -16 | ? | -8 | -1.2 | 0.7 | 4
CC(OC(=O)c1cc2sccc2n1C)C(=O)NC(C)(C)C (stereo unspecified) | -3 | -1.1% | -8 | -5.7 | 0.0 | 11
O=[N+]([O-])c1ccc(-n2nnnc2CN2CCOCC2)cc1 | 5 | -0.1% | -9 | -1.7 | -0.4 | 13
CCc1ccccc1N1CC(C(=O)Nc2cc(S(=O)(=O)N3CCCC3)ccc2Cl)CC1=O (stereo unspecified) | -28 | 3.3% | -1 | -6.4 | -0.5 | -4
Nc1ccc(Nc2ccccc2)cc1 | -15 | . | 22 | 0.4 | 0.0 | ?
CCOc1ccc(NS(=O)(=O)c2cccc(C(=O)N(C)Cc3ccco3)c2)cc1 | 10 | 0.1% | -1 | 11 | 0.0 | -2
Cc1c(C(=O)NCc2ccc3c(c2)OCO3)sc2nc(-c3ccccc3)cn12 | -2 | 6.4% | -6 | 0.6 | -0.3 | -6
COc1cc(CCC(=O)OCC(=O)Nc2ccccc2C(C)C)cc(OC)c1OC | -6 | 0.3% | -13 | 0.8 | 0.3 | 0
Cc1occc1-c1nnc(SCC(=O)NC2CC2)n1C(C)C | -3 | -0.2% | 0 | -3.3 | 0.5 | 4
C/C(N)=C(/C#N)C(=O)CN1CCCCC1 | -9 | 1.2% | 18 | 0.7 | 0.3 | 3
CC(C)Cc1ccc(S(=O)(=O)NCC2CCCO2)cc1 (stereo unspecified) | -8 | -0.4% | -2 | ? | 0.2 | 3
COC(=O)c1cc2nc(-c3ccccc3)cc(C)n2n1 | -6 | -3.3% | 14 | -2.6 | 1.7 | 3
COc1ccc(S(=O)(=O)N2CCN(CC(=O)NCC3(N4CCOCC4)CCCCC3)CC2)cc1 | 0 | 1.9% | -2 | -1.5 | 0.5 | 6
O=C(COc1ccc(S(=O)(=O)NCCc2ccccc2)cc1)N1CCCC1 | -12 | -0.9%[38.3 µM] | -10 | 1.5 | -0.7 | 1

Single records (already shown). Order of screens: TRPML1 blocker	PINK1 modulator	D2 PAM	D2 ag	TRPML1 ag	Six1-Eya2 inh
Record of O=[N+]([O-])c1ccc(-n2nnnc2CN2CCOCC2)cc1 : 5	-0.1%	-9	-1.7	-0.4	13
Record of COC(=O)/C=C1\SC(=Nc2ccc(OC)cc2)NC1=O : 11	1.6%	-4	-6.3	0.3	1
Record of Nc1ccc(Nc2ccccc2)cc1 : -15	.	22	0.4	0.0	?
Record of COc1ccc(S(=O)(=O)N2CCN(CC(=O)NCC3(N4CCOCC4)CCCCC3)CC2)cc1 : 0	1.9%	-2	-1.5	0.5	6
Record of O=C(Nc1ccccc1)C(Cc1ccccc1)NC(=O)C12CC3CC(CC(C3)C1)C2 (stereo unspecified) : -16	?	-8	-1.2	0.7	4

Further entries
SMILES | TRPML1 blocker | PINK1 modulator | D2 PAM | D2 ag | TRPML1 ag | Six1-Eya2 inh
CCN1CCN(c2oc(/C=C/c3ccccc3)nc2C#N)CC1 | 18 | 0.2% | -14 | 0.3 | 2.5 | 8
O=C(C[C@H]1C/C=C\CC[C@H](Cc2ccc(F)cc2)C(=O)OC[C@@H](Cc2c[nH]c3ccccc23)NC1=O)NCCO | 21 | 2.9% | 2 | -1.6 | -0.2 | 3
COc1ccc(CC(=O)Nc2cccc(/C(C)=N/NC(=O)C3(C)CC3(Br)Br)c2)cc1 (stereo unspecified) | -5 | -0.5% | -12 | 0.6 | 0.1 | -5
CC1CCCN(C2=C(Cl)C(=O)N(c3cccc(Cl)c3)C2=O)C1 (stereo unspecified) | 25 | -1.1% | -5 | -3.4 | 2.5 | 62
Cc1ccc(C(=O)NC(C)CCc2ccccc2)cc1[N+](=O)[O-] (stereo unspecified) | 0 | -0.4% | -23 | -3.9 | 0.2 | 0
O=c1c2ccccc2nnn1CSc1nnc2ccccn12 | 16 | -2.0% | 12 | -1.3 | -0.6 | 2
COC(=O)[C@@]12CCCCN1[C@H](c1ccc(-c3ccc(F)cc3)c(OC)c1)[C@H]1C(=O)N(C)C(=O)[C@H]12 | 60 | 2.8% | 4 | 0.5 | 0.8 | 4
CCOC(=O)N1CCN(CCC(=O)Nc2cccc(Cl)c2C)CC1 | 2 | -0.1% | -14 | -6.0 | -0.6 | -2
CCOC(=O)Nc1ccc2c3c(cccc13)-c1ccccc1-2 | -3 | 3.5% | -12 | -3.0 | -0.1 | 31
COc1cc(-c2nnc(SCC(=O)Oc3ccccc3Cl)o2)cc(OC)c1OC | 0 | 1.0% | . | . | -0.5 | .
Cc1nn(CC(=O)Nc2nnc(CC(=O)N3CCCC3)s2)c(=O)c2ccccc12 | -6 | -1.0% | -1 | -0.5 | -0.8 | 11
O=S(=O)(c1ccc2c(c1)N(Cc1ccc(Cl)cc1)C1CCCN21)N1CCOCC1 (stereo unspecified) | -3 | -0.4% | -3 | 1.2 | 0.6 | 13
Fc1ccc(NC(=S)NCCN2CCOCC2)cc1 | -2 | -0.3% | 0 | 2.7 | 0.6 | -1
CCOc1ccc(N(CC(=O)O)S(=O)(=O)c2ccc(OC)c(OC)c2)cc1 | 6 | 1.0% | -19 | -3.0 | 0.0 | 6
CCCc1cc(=O)[nH]c(SCC(=O)Nc2oc(C)c3c(C)n[nH]c(=O)c23)n1 | 43 | 0.8% | -1 | -9.0 | -0.6 | -1
FC(F)(F)c1nc(-c2cccs2)ncc1-c1nnnn1-c1ccc(Cl)cc1 | 37 | 16% | 12 | 2.3 | 4.3 | -2
Cc1ccc2c(c1)[C@@H](O)C[C@@H](C)N2N=O | 2 | -0.7% | -1 | 2.8 | 0.2 | 14
O=C(Oc1ccc(C(=S)N2CCOCC2)cc1)c1ccc(Br)cc1 | 20 | 7.9% | 12 | 0.2 | 1.3 | -89*
O=c1nc2sc3ccccc3n2c(=O)n1-c1cccc(Cl)c1 | -17 | ? | -5 | -0.7 | -0.6 | 5
CCN1C(=O)[C@H]2[C@@H](c3ccc(-c4ccccc4)cc3)N3CCCC[C@@]3(C(=O)OC)[C@H]2C1=O | 66 | 1.1% | -11 | -6.1 | -0.1 | -1
COc1ccc(CCCC(=O)Nc2ccccc2F)cc1 | 0 | -0.5% | -12 | -4.3 | 0.3 | -2
CCCC(C)NC(=O)c1cc(S(=O)(=O)N2CCCCCC2)ccc1OC (stereo unspecified) | 8 | 3.0% | 0 | -2.4 | -0.3 | 11
CCC(C)C(=O)N1CCc2cc(-c3csc(N)n3)ccc21 (stereo unspecified) | -5 | -0.8% | -1 | 11 | -0.7 | -6
Nc1nnc(SCc2cccnc2)s1 | -6 | 0.9%[38.3 µM] | -14 | -2.6 | 0.4 | 1
CC[C@@H]1C/C=C\Cc2ccccc2[C@H](C(=O)C[C@H](O)CC(C)=O)OC1=O | 4 | 0.4% | 4 | 0.7 | -0.4 | 2
CC(=O)C1C(c2cccc([N+](=O)[O-])c2)C2C(C)=NN=C2CC1(C)O (stereo unspecified) | -2 | 1.2% | 9 | 4.1 | 0.5 | 9
Cc1ccc(-n2c(=O)c3c4c(sc3n(CC(=O)Nc3cccc(Cl)c3)c2=O)CCCCC4)cc1C | 19 | -0.9% | . | . | 0.3 | .
CC(=O)Nc1ccc(N2C(=O)CCC2=O)cc1C | -14 | 1.0% | -27 | -3.4 | 0.4 | 1
O=C1C=C(c2ccc3ncccc3c2)C[C@@H](c2ccc3c(c2)OCO3)C1 | -7 | 0.9% | -10 | 1.1 | 0.8 | -23
CCC(C)(C)NC(=O)c1ccc2c(c1)N(CC(=O)OC)C(=O)C(C)(C)O2 | 5 | 10%[38.3 µM] | -1 | -1.3 | -0.8 | 3
O=C(c1ccco1)N1CCN(Cc2csc(-c3ccccc3Cl)n2)CC1 | 10 | 3.3% | -37 | 0.2 | 1.0 | -7
